Sa growth 42C: inhibitors of Staphylococcus aureus growth at 42 °C | 0.53% of 170,000 active | relative growth, % (no concentration beside the values) | S. aureus RN4220 growth, OD600, 20 h; active compounds read low | AID 720641;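 active = growth at 42 °C up to 50% and 20 or more points under that at 30 °C, or under 10% at both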;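 note: 300 nL library stock went into each well; scaled to the means of positive and negative controls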
GIV-Gai inh: GIV-Galpha-i interaction inhibition; P08753; AID 1224905; Galpha-i3/FITC-GIV peptide fluorescence polarization, 90 min; active compounds read low; scaled: aluminum fluoride 0%, vehicle 100%; 0.42% of 210,000 active; percent of control (FP), % (no concentration beside the values);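 active = replicate mean at 85% of control or lower, very high polarization wells dropped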;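 note: wells of about 15 µL received 100 nL stock; the first replicate is given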
Target sequence (P08753 whole entry, looked up): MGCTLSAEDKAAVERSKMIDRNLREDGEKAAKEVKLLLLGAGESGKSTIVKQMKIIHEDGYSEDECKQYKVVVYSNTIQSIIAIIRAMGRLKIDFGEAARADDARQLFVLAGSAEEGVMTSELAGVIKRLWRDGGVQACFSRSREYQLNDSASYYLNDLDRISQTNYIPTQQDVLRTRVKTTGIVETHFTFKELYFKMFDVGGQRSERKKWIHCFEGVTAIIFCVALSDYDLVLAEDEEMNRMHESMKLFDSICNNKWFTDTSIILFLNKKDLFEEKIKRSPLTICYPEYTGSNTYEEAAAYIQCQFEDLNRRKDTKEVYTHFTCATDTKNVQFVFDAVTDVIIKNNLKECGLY
HCMV NEC inh: inhibitors of HCMV UL50-UL53 nuclear egress complex interaction | inhibition, % (concentration not given with the values) | HTRF UL50-UL53 interaction, normalized percent inhibition | 0.15% of 190,000 active;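 active = both replicates at 50% or more, plus weaker picks with an unusually low signal ratio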;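 note: stock transfer was 100 nL into about 20 µL; 0% = negative control wells and 100% = wells with untagged competitor protein; inactives centre near -12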
Sa growth 42C second temp: also measured in Sa growth 42C; calls as there; relative growth, %; measured here: growth at 30 °C;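 optical density after 20 h as mean of two plates; 100% = untreated growth and lower means inhibition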
* marks the source's active call; other numbers are inactive results; . = no result given; & = joins results of further samples.

SMILES	Sa growth 42C	Sa growth 42C second temp	GIV-Gai inh	HCMV NEC inh
Nc1c(C(=O)NCc2ccc(Cl)cc2Cl)nnn1Cc1ccc(Br)cc1	113	94	103	2
Fc1cccc(F)c1CSc1nc2ccccc2[nH]1	92	73	104	-30
O=C(NCc1ccccc1)Nc1ccccc1	100	90	104	-12
CCOC(=O)c1cc2ccsc2n1CC(=O)Nc1cc(F)ccc1F	.	.	102	-2
CC(C)c1ccc(NC(=S)NN2CCOCC2)cc1	95	88	101	3
CCc1cccc(NC(=O)c2cnc(SC)nc2-c2ccccc2)c1	108	94	105	.
Cc1[nH]ncc1CNC(=O)C1CCCN(C(=O)c2[nH]c(C)c(C(=O)OC(C)C)c2C)C1 (stereo not given)	.	.	96	-28
COc1ccc(NCN2C(=O)S/C(=C/c3ccccc3OC)C2=O)cc1Cl	.	.	108	-3
O=c1c2ccccc2c(-c2nc(-c3ccccn3)no2)cn1-c1ccccc1	.	.	100	6
CCN1c2cc(C)ccc2-n2cccc2C12CCN(S(=O)(=O)c1ccc(OC)c(OC)c1)CC2	.	.	102	-36
Cc1cc(C(=O)NC(C)CCc2ccccc2)c2c(=O)n(C)c(=O)n(C)c2n1 (stereo not given)	.	.	109	-30
Cc1cccc(-n2cnc3cc(C(=O)NCCC4=CCCCC4)ccc32)c1	103	95	103	.
COc1ccc(N2C(=O)CC(N(O)c3ccccc3)C2=O)cc1 (stereo not given)	99	108	95	-32
CCC(=O)N1CCc2cc(S(=O)(=O)CCC(=O)Nc3ccc(OC(F)(F)F)cc3)ccc21	110	88	107	-20
CC1=Nc2ncnn2C(c2ccccc2)/C1=N\O (stereo not given)	98	88	.	-55

Part of the list above, with bars between the fields.
mol | Sa growth 42C | Sa growth 42C second temp | GIV-Gai inh | HCMV NEC inh
CCc1cccc(NC(=O)c2cnc(SC)nc2-c2ccccc2)c1 | 108 | 94 | 105 | .
Nc1c(C(=O)NCc2ccc(Cl)cc2Cl)nnn1Cc1ccc(Br)cc1 | 113 | 94 | 103 | 2
COc1ccc(NCN2C(=O)S/C(=C/c3ccccc3OC)C2=O)cc1Cl | . | . | 108 | -3

The list goes on.
SMILES	Sa growth 42C	Sa growth 42C second temp	GIV-Gai inh	HCMV NEC inh
c1ccc(Cc2nc3ccc4[nH]snc4c3n2)cc1	111	65	104	.
Cc1cc(C)nc(SCC(=O)Oc2cccc(OC(=O)CSc3nc(C)cc(C)n3)c2)n1	90	93	101	-8
CCC1CN(C(=O)NC2CCCC2)c2ccccc2O1 (stereo not given)	119	93	103	2
CCS(=O)(=O)c1ncc(Cl)c(C(=O)N2CCN(c3cccc(Cl)c3)CC2)n1	7.0*	-0.9*	104	-1
CCC(C(=O)N1CCN(CC)CC1)c1ccccc1 (stereo not given)	109	98	101	-2
Cc1cc(C)nc(SCCN(C)C)n1	86	98	103	6
O=C(O)c1cccnc1SC1CC(=O)N(C2CCCC2)C1=O (stereo not given)	99	99	99	-20
COc1cc(C(=O)O)ccc1OCc1ccccc1	118	86	.	-32
CC1(C)C(=O)N(CC(=O)Nc2ccc(F)cc2F)c2ccc(S(=O)(=O)N3CCCCC3)cc21	.	.	103	-31
COc1ccc2cc3c(N)nn(C(=O)Cc4ccc(Cl)cc4)c3nc2c1	100	93	98&99	-2&-28
Cc1ccc2occ(CC(=O)Nc3c(C)cccc3C)c2c1	109	100	105	8
CCOc1ccc2c(c1)C(=O)c1cc(OCC)ccc1-2	103	85	97	.
COc1ccc(NC(=O)c2c(C)oc3ccc(O)c(CN4CCN(C)CC4)c23)cc1	87	90	100	-13
CCc1sc(-c2ccccc2)nc1C(=O)OC	90	91	98	-3
CC(C)(C)C1=C(C#N)C(c2ccc(Cl)cc2)CC(=O)N1 (stereo not given)	.	.	100	-13
Cc1cc(NCc2ccc(Cl)cc2)n2cnnc2n1	113	89	99&104	0&-20
CCC1(CC)Cc2ccccc2-c2nc(NCCCO)[nH]c(=O)c21	114	78	98	-27
O=C(C1CCC1)N1CCc2cc(S(=O)(=O)NCCN3CCCC3)ccc21	103	79	99	.
C=CCc1c(C)nc(SC)nc1Nc1ccc(C(=O)O)cc1	64	79	119	31
COC(=O)c1ccc(CSc2ncccn2)cc1	103	84	111	-1
Cc1ccc(S(=O)(=O)c2cn(Cc3ccccc3)c3cc(N4CCCC4)c(F)cc3c2=O)cc1C	118	88	103	.
COC(=O)c1ccc(CC#N)o1	93	88	98	-9
CCCCN(CCCC)C(=O)CN(C)S(=O)(=O)c1ccc2c(c1)c(=O)n(C)c(=O)n2C	100	97	100	2
COc1ccc(C2=Nn3c(nc4sc5c(c4c3=O)CCCC5)SC2)cc1	103	73	105	-2
CCOc1ccc(N(CC)S(=O)(=O)N2CCCC(C(=O)O)C2)cc1 (stereo not given)	91	90	95	-3
CC(C)(C)OC(=O)N1CCCC(CN)C1 (stereo not given)	96	86	105	20
O=C(O)CSCC(=O)Nc1ccccc1C(F)(F)F	105	90	100	-30
COc1ccc(C(c2ccc3cccnc3c2O)N2CCOCC2)cc1 (stereo not given)	8.8*	2.6*	98	.
Cc1nc(C(=O)N/N=C/c2[nH]ncc2Cl)cs1	95	93	111	2
CC(C)CCNc1ncnc2c1nc1n2CCCCC1	96	88	98	.
CCCN(Cc1cc2ccc(C)cc2[nH]c1=O)C(=O)c1cccc(Cl)c1	.	.	111	-19
COC(=O)N/N=C/c1cn(-c2ccccc2)nc1-c1ccc(OC)cc1	92	92	.	-11
O=C(O)Cn1cc(/C=C2\C(=O)NC(=O)N(c3ccc4c(c3)OCO4)C2=O)c2ccccc21	93	89	103	-33
O=C(CSc1cccc[n+]1[O-])NCC1CCCCC1	98	88	.	-12
O=C(c1ccc2c(=O)n(-c3ccccc3)c(=O)[nH]c2c1)N1CCN(c2ccc(F)cc2)CC1	90	85	103	-5
CCOc1ccc2c(c1)-c1c(ssc1=S)C(C)(C)N2C(=O)CN1C(=O)C2CCCCC2C1=O (stereo not given)	.	.	100	-30
Cc1ccccc1OCC(=O)NC1CCCCC1	103	92	.	-8
CCCC(=O)Nc1ccc2c(c1)nc(CN1CCN(C(=O)OCC)CC1)n2C(C)C	88	88	101	14
COc1ccc2nc(NC(=O)[C@@H]3CCCN3C(=O)c3cccs3)sc2c1	95	93	.	-4
COc1cc(C2C(C#N)=C(C)Nc3oc(C)nc32)ccc1OCCN1CCOCC1 (stereo not given)	99	70	.	-9
N/C(Cn1ccccc1=O)=N\O	82	83	.	-14
O=C(CCN1CCOCC1)N1c2ccccc2Sc2ccc(Cl)cc21	125	102	102	.
COc1ccccc1Cn1c(SCC(=O)C(C)(C)C)nc2ccccc2c1=O	123	94	110	.
Cc1nn(CCCC(=O)NCCc2ccccc2)c(=O)c2nccn12	98	86	103	.
CCC(Oc1ccccc1)C(=O)N1CCOCC1 (stereo not given)	107	84	99	-2
Cn1c(=O)c2c(nc(NCc3ccc4c(c3)OCO4)n2Cc2cccc3ccccc23)n(C)c1=O	.	.	104	-25
CN(CCC#N)C(=O)Cn1cnc2c(cnn2-c2ccc(F)cc2)c1=O	107	90	.	10
CCC(C(=O)NC1CCCCC1)n1c(SCc2cccc(F)c2)nc2ccncc21 (stereo not given)	95	89	105	2
CCOc1ccc(NC(=O)CSc2nc3c(oc4ccccc43)c(=O)n2CCOC)cc1	98	87	94	-8
N#CCOC(=O)c1cc(-c2ccc(C=C(C#N)C#N)o2)ccc1Cl	95	77	97	-17
COc1cccc(/C=C/C(=O)Nc2ccc3nc(N4CCN(C)CC4)cc(C)c3c2)c1OC	96	73	102	7
Cc1ccc(S(=O)(=O)NC(C)C(=O)Oc2cc3oc(=O)c(Cl)c(C)c3cc2Cl)cc1 (stereo not given)	64	43	.	-48
COc1cc(Nc2cc(-c3ccc(C)cc3)nc(C)n2)c(OC)cc1Cl	.	.	104	12
COC(=O)CC1Oc2ccccc2-n2cc(-c3ccc(C)cc3)nc21 (stereo not given)	95	89	106	-8
Cc1cccc(C)c1Nc1c(-c2cccs2)nc2ncccn12	99	88	122	-34
Nc1nc(COc2ccccc2)cs1	120	76	.	-35
COC(=O)c1nc(NC2=NCCCCC2)n[nH]1	103	95	.	-8
Cc1nc(Cc2nnc(SCC(=O)c3ccc(Cl)s3)o2)cs1	105	92	.	-30
Nn1c(SCC(=O)NCc2ccc3c(c2)OCO3)nncc1=O	90	83	100	-33
Fc1ccc(-c2ccc(SCc3nc(-c4ccc(Cl)cc4)no3)nn2)cc1	.	.	104	13

An excerpt from above in order of number of heavy atoms, lowest first:
SMILES	Sa growth 42C	Sa growth 42C second temp	GIV-Gai inh	HCMV NEC inh
N/C(Cn1ccccc1=O)=N\O	82	83	.	-14
CCC1(CC)Cc2ccccc2-c2nc(NCCCO)[nH]c(=O)c21	114	78	98	-27
COc1ccc2nc(NC(=O)[C@@H]3CCCN3C(=O)c3cccs3)sc2c1	95	93	.	-4
Cc1cccc(-n2cnc3cc(C(=O)NCCC4=CCCCC4)ccc32)c1	103	95	103	.
CCOc1ccc(NC(=O)CSc2nc3c(oc4ccccc43)c(=O)n2CCOC)cc1	98	87	94	-8
O=C(c1ccc2c(=O)n(-c3ccccc3)c(=O)[nH]c2c1)N1CCN(c2ccc(F)cc2)CC1	90	85	103	-5
Cc1ccc(S(=O)(=O)c2cn(Cc3ccccc3)c3cc(N4CCCC4)c(F)cc3c2=O)cc1C	118	88	103	.

Additional compounds follow.
SMILES	Sa growth 42C	Sa growth 42C second temp	GIV-Gai inh	HCMV NEC inh
CCOC(=O)c1cccc(NC(=O)c2cnc3sc(N4CCOCC4)nn3c2=O)c1	100	91	97	.
CCOc1ccc(C2CC(=O)c3c([nH]c(C(=O)OCCOc4ccccc4)c3C)C2)cc1 (stereo not given)	89	103	102	-6
COc1ccc(C(=O)OCC(N)=O)c(OC)c1	88	96	.	-13
COc1ccccc1N1CCN(c2ncnc3c2cnn3C)CC1	114	88	104	.
Cc1ccc(-c2nc(C)c(CCNC(=O)C(=O)Nc3cc(C)ccc3C)s2)cc1	102	84	103	.
CC(=O)Nc1nc(CSc2nnc(-c3cccc(S(=O)(=O)N4CCCCC4)c3)o2)cs1	78	94	.	-36
CN1C(C(=O)NCC2CCCO2)=CC(c2cccs2)=NS1(=O)=O (stereo not given)	100	94	106	.
N#Cc1c(NC(=O)C2c3ccccc3Oc3ccccc32)oc(-c2ccco2)c1-c1ccco1	116	84	.	-8
COc1ccc(CNC(C)C2CC2)cc1 (stereo not given)	74	92	.	-11
NCCN1C(=O)S/C(=C/c2cccs2)C1=O	73	82	.	-55
COc1cccc(CNC(=O)c2cccc(NC(=O)N3CCCCc4ccccc43)c2)c1	.	.	104	-7
Cc1ccccc1Cn1nc(C)c(NC(=O)c2cc(CC(C)C)on2)c1C	92	81	104	-14
CCc1nnc(SCC(=O)OC)c2cc3sccc3n12	103	82	104	-43
COc1ccc(N=C2SC(C(=O)O)CC(=O)N2C)cc1 (stereo not given)	87	81	97	-20
CCCCn1c(NC(=O)c2ccc(Br)o2)c(S(=O)(=O)c2ccc(C)cc2)c2nc3ccccc3nc21	22	15	.	-10
COCCCNc1oc(-c2ccccc2)nc1S(=O)(=O)c1ccccc1	92	102	102	-2
Cc1noc(/C=C/N(C)C)c1S(=O)(=O)NCCN1CCN(c2ccccc2F)CC1	97	92	99	-11
CCOC(=O)N1CCN(C(=O)CN(c2ccc(C)cc2C)S(=O)(=O)c2ccccc2)CC1	109	87	112	-22
COc1cccc(N2CCN(C(=O)C3CCC(CNS(=O)(=O)c4ccc(Br)s4)CC3)CC2)c1 (stereo not given)	99	90	101	-7
O=C1N/C(=C/c2ccc(O)cc2)C(=O)N1Cc1ccc(Br)cc1	105	91	114	2
NC(=O)CN1CCN(Cc2cccc3ccccc23)CC1	90	96	101	-23
Cc1ccc(Nc2nc(CN(C)CCCc3[nH]nc(N)c3C#N)cs2)cc1	-1.1*	-0.6*	.	-5
COCCNC(=O)CN1C(=O)CC(C)Sc2ccc(S(=O)(=O)N3CCCCC3)cc21 (stereo not given)	.	.	103	-14
CCCCNC(=O)Nc1sccc1C#N	71	91	.	18
CCn1c(C)ccc(-c2noc(CCC(=O)Nc3cccc(C)c3)n2)c1=O	.	.	101	-12
CCOC(=O)c1sc(SC)c2c1CCC=C2	86	81	102	3

Compound activity from PubChem BioAssay.
